NPYLR7 agonist – activates Aedes aegypti NPYLR7 receptor; HEK293T NPYLR7/Galpha15, GCaMP6s calcium fluorescence; activation, % at 10 µM; 270,000 compounds, 0.15% hits; AID 1259423; in the data active = activation above about 40%;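 also: 0% = vehicle and 100% = reference agonist at the receptor; some compounds past the cut are filed as inactive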
NPYLR7 agonist max-min – also measured in NPYLR7 agonist; calls as there; activation, %; measured here: Max-Min RFU normalised activation; some inactives read as strong as hits;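 span of the calcium signal over five minutes; 0% = vehicle and 100% = native peptide agonist; compound fluorescence can raise it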
* hit, by the source's call; & = joins results of further samples. An excerpt, so the mix of outcomes need not match the whole.

SMILES	NPYLR7 agonist	NPYLR7 agonist max-min
COc1cccc(/C=N\NC(=O)CSc2nc3ccccc3n2Cc2ccccc2)c1O	-8	-13
Cc1cc(C)cc(OCCC(=O)N2CCC(C(N)=O)CC2)c1	4	2
O=C(Cn1cc(OCc2ccc(F)cc2)c(=O)cc1CO)NCc1ccccc1	1	0
CCSC(C)c1noc(CNC)n1 (stereo not drawn)	27	22
COCCNC(=O)C(C)n1c(=O)n(-c2ccc(F)cc2)c(=O)c2ccc(Cl)cc21 (stereo not drawn)	-11	-9
CCC(=O)Nc1ccc(N(C)C)c(CN(Cc2ccccc2)C(=O)c2ccc(OC)cc2)c1	9	17
COc1ccc(CN(CCc2c[nH]c3ccccc23)C(=O)CN(C(=O)c2ccccc2F)C(C)C)cc1	23	23
CC1(C)CC(C(=O)N2CCOc3c(cc(-c4cccnc4)cc3OCCc3cccs3)C2)CCO1 (stereo not drawn)	14	2
O=C(CCl)Nc1ccc(S(=O)(=O)C(F)F)cc1	3	6
O=C(c1cccs1)N1CCCC(OCc2cccc(Cl)c2)C1 (stereo not drawn)	-23	-14
CN1CCCC(CN(CCc2ccccc2)C(=O)C2=CCCC2)C1 (stereo not drawn)	3	-6
CCn1c(O)c(N=NC(=O)c2ccccc2[N+](=O)[O-])c2ccccc21	-2	-4

Structures from the list above that contain a carbonyl joined to an NH by a bond outside any ring, in the order listed:
SMILES	NPYLR7 agonist	NPYLR7 agonist max-min
COc1cccc(/C=N\NC(=O)CSc2nc3ccccc3n2Cc2ccccc2)c1O	-8	-13
Cc1cc(C)cc(OCCC(=O)N2CCC(C(N)=O)CC2)c1	4	2
O=C(Cn1cc(OCc2ccc(F)cc2)c(=O)cc1CO)NCc1ccccc1	1	0
COCCNC(=O)C(C)n1c(=O)n(-c2ccc(F)cc2)c(=O)c2ccc(Cl)cc21 (stereo not drawn)	-11	-9
CCC(=O)Nc1ccc(N(C)C)c(CN(Cc2ccccc2)C(=O)c2ccc(OC)cc2)c1	9	17
O=C(CCl)Nc1ccc(S(=O)(=O)C(F)F)cc1	3	6

Carrying on:
SMILES	NPYLR7 agonist	NPYLR7 agonist max-min
CCOC(C)c1noc(CN(C)C(=O)c2cccnc2Cl)n1 (stereo not drawn)	5	2
Cn1c(-c2ccccc2)nn(CCNC(=O)/C=C/c2ccccc2)c1=O	-2	-3
CC1CCN(C(C)C(=O)Nc2cccc3ccccc23)CC1 (stereo not drawn)	0	0
O=C(CCc1ccco1)NC1c2ccccc2-c2ccccc21	0	-2
CC(=O)Nc1ccc(-c2csc(NC(=O)CN3CSCC3=O)n2)c(F)c1	-6	-8
Nc1nc(-c2ccc(Cl)cc2)c(CC(=O)O)s1	-2	19
CC1(C)CCC(C)(C)c2cc(NC(=O)Nc3cccc4[nH]c([C@@H]5O[C@H](CO)[C@@H](O)[C@H](O)[C@H]5O)nc34)ccc21	24	26
COc1ccc(N2C(=O)C(c3c(C)[nH]n(-c4ccc(F)cc4)c3=O)=C([n+]3cc(C)cc(C)c3)C2=O)cc1	-9	-10
O=C(CNC(c1ccccc1)c1cccs1)N(C1CCCC1)C1CCS(=O)(=O)C1 (stereo not drawn)	5	-2
O=C(Nc1nccs1)c1ccc(NC(=O)c2ccco2)cc1	7	12
COCCN1CC2=C(C1=O)C(c1ccccc1F)NC(=O)N2 (stereo not drawn)	22	19
Cn1c(=O)c2c(nc(N3CCOCC3)n2CCCc2ccccc2)n(C)c1=O	8	4
CN1CCN(N=Cc2ccc(N(C)C)cc2)CC1	6	3
Cn1c(=O)oc2cc(NS(=O)(=O)NCc3ccccc3)ccc21	6	7
CCC1CSC(=Nc2ccc(C)cc2)N1C(=O)CN1C(=O)NC2(CCCC2)C1=O (stereo not drawn)	1	-1
O=C(NCCc1nnc(-c2ccccc2)o1)c1cc2c(s1)CCC2	2	0
COc1ccc2c(c1OC)C(=O)N(c1cccc(F)c1)C2=O	7	1
NS(=O)(=O)c1cc2c(cc1Cl)NC(=CSCc1ccccc1)NS2(=O)=O	-21&-6&-2	-27&-15&-9
COC(=O)c1[nH]nc2c1C(C1=Cc3cc(Cl)ccc3OC1)CC(=O)N2 (stereo not drawn)	0&2	-2&-3
O=C(c1cccc(Cl)c1F)N1CCOC2(CNCCOC2)C1 (stereo not drawn)	6	1
COc1cccc(C(=O)NN=c2sc3ccccc3n2C)c1	1	-5
Cc1ccccc1-n1cnn(CN2CCN(C(=O)C(C)C)CC2)c1=S	0	6
COc1cc(=O)n(-c2ccccc2)nc1C(=O)N1c2ccc(F)cc2CCC1C (stereo not drawn)	3	2
Cc1noc(C)c1C(=O)N1CCC(C(=O)Nc2cccc(-c3cc4ccccc4[nH]3)c2)CC1	5&-1	2&-2
C=CCN(Cc1ccccn1)Cc1c(C)nn(C)c1Cl	2	0
Cc1nc(-c2ccccc2)c(C(=O)Nc2ncn[nH]2)s1	6	2
CN(C(=O)CC(c1ccccc1)c1ccc2c(c1)OCO2)C1CCOCC1 (stereo not drawn)	0	-1
CCCc1nnc(-c2cc3ccccc3n2CC(=O)Nc2cc(C)ccc2C)o1	-2	-4
Brc1ccc([C@H]2CN3CCSC3=N2)cc1	1	-6
CN=c1scc(-c2cccc(Br)c2)n1N=Cc1ccncc1	7	6
C#CCNC(=O)C[C@@H]1O[C@H](CNC(=O)NC2CCCCC2)[C@@H](O)[C@H]1O	-10	-15
Cc1cccc2[nH]c(C3CCCN(Cc4cc5n(n4)CCCNC5)C3)nc12 (stereo not drawn)	7	-2
Cc1ccc(NC(C(=O)N2CCOCC2)c2ccccc2)c(C)c1 (stereo not drawn)	1	-3
COc1ccc(CN(C)C(=O)NCc2ccc(C)cc2)c(OC)c1OC	-2	-2
Cc1ccc(C)c(CSc2nnc(-c3cc(-c4cccs4)nc4cc(C)c(C)cc34)n2C(C)C)c1	0	9
CCOc1ccccc1-n1c(C)c(C)n2c3c(=O)n(CC(=O)C(C)(C)C)c(=O)n(C)c3nc12	4	1
COc1ccc2nc(-c3cccc(NC(=O)C4c5ccccc5Oc5ccccc54)c3)cn2n1	-9	-14
Cc1ccc(C2=N/C(=C\C(Cl)=C\c3ccccc3)C(=O)O2)cc1[N+](=O)[O-]	-1	2
Cc1nc(NCC(C)C)c2sc3nc4c(cc3c2n1)COC(C)(C)C4	5	3
CCCCc1ncc(CN2CCOc3ccc(CN4CCC[C@H]4C(=O)OC)cc3C2)[nH]1	16	8
Cc1nc2c(c(N(C)C)n1)CCN(C(=O)[C@@H]1C[C@@H](O)CN1)C2	2	-3
CC1(C(=O)OCCn2cccn2)CCN(C(=O)c2ccccc2)CC1	0	0
CCCOC(=O)N1CCC(c2n[nH]c(=O)n2CC)CC1	7	4
Cc1nc2cc3c(cc2s1)OCO3	12	9
Cc1ccc(-n2nnc(C(=O)OCc3ccccc3)c2C)cc1C	4	-8
COc1cccc(NC(=O)O[C@@H]2CC[C@]3(C)C(CC[C@@H](O)[C@H]3CC(=O)N3CCC[C@H]3CO)[C@]2(C)CO)c1 (stereo partly drawn)	-11	-15
COC(=O)C(C)Sc1nc(=O)ccn1C(C)C (stereo not drawn)	10	9
Cc1cc(CNCc2cnn(-c3ccc(Cl)cc3)c2)no1	9	5

Full records, looked up by structure:
Cc1cc(CNCc2cnn(-c3ccc(Cl)cc3)c2)no1 reads NPYLR7 agonist: 9; NPYLR7 agonist max-min: 5
Cc1nc2c(c(N(C)C)n1)CCN(C(=O)[C@@H]1C[C@@H](O)CN1)C2 reads NPYLR7 agonist: 2; NPYLR7 agonist max-min: -3
COc1cccc(NC(=O)O[C@@H]2CC[C@]3(C)C(CC[C@@H](O)[C@H]3CC(=O)N3CCC[C@H]3CO)[C@]2(C)CO)c1 (stereo partly drawn) reads NPYLR7 agonist: -11; NPYLR7 agonist max-min: -15

A few values from the entries so far:
Value of O=C(Nc1nccs1)c1ccc(NC(=O)c2ccco2)cc1 in NPYLR7 agonist: 7
Value of Cc1nc2cc3c(cc2s1)OCO3 in NPYLR7 agonist max-min: 9
Value of COc1ccc(N2C(=O)C(c3c(C)[nH]n(-c4ccc(F)cc4)c3=O)=C([n+]3cc(C)cc(C)c3)C2=O)cc1 in NPYLR7 agonist: -9
Value of O=C(CNC(c1ccccc1)c1cccs1)N(C1CCCC1)C1CCS(=O)(=O)C1 (stereo not drawn) in NPYLR7 agonist: 5

Following part:
SMILES	NPYLR7 agonist	NPYLR7 agonist max-min
O=C(NC(c1cccs1)C1CCCC1)C1Cc2ccccc2O1 (stereo not drawn)	6	5
COCCn1cc(C(=O)NCc2c(F)cccc2F)c2nn(-c3ccccc3)c(=O)c-2c1	4	2
COCCn1c(CN2CCN(c3ccc(F)cc3)CC2)nc2c1c(=O)n(C)c(=O)n2C	4	2
Brc1cc2c(cc1CSc1nncn1-c1ccccc1)OCO2	-1	-5
O=C(NC1CCc2ccccc21)c1ccc(-c2cccc(Cl)c2)s1 (stereo not drawn)	6	22
CN(C)S(=O)(=O)NCC1CCCO1 (stereo not drawn)	3	1
Cc1ccc(CNC(=O)C2(C)CCN2S(=O)(=O)c2ccccc2)cc1 (stereo not drawn)	2	0
CCOC(=O)c1nnc2n(c1=O)CCN2c1ccccc1	-2	-2
CC(CN1CCCC1=O)NC(=O)Nc1cccc(S(=O)(=O)C2CCCC2)c1 (stereo not drawn)	2	9
COc1ccc(S(=O)(=O)N(Cc2nccn2Cc2ccccc2C(F)(F)F)CC2CCCO2)cc1 (stereo not drawn)	-1	6
COc1ccc2c([N+](=O)[O-])c(-n3nnc4ccccc43)[nH]c2c1	3	-1
NS(=O)(=O)c1ccc(CNC(=O)c2ccc(OCc3nc(C4CC4)cs3)cc2)cc1	2	0

Next part, overlapping the part above by 4 compounds.
SMILES	NPYLR7 agonist	NPYLR7 agonist max-min
CC(CN1CCCC1=O)NC(=O)Nc1cccc(S(=O)(=O)C2CCCC2)c1 (stereo not drawn)	2	9
COc1ccc(S(=O)(=O)N(Cc2nccn2Cc2ccccc2C(F)(F)F)CC2CCCO2)cc1 (stereo not drawn)	-1	6
COc1ccc2c([N+](=O)[O-])c(-n3nnc4ccccc43)[nH]c2c1	3	-1
NS(=O)(=O)c1ccc(CNC(=O)c2ccc(OCc3nc(C4CC4)cs3)cc2)cc1	2	0
CCOC(=O)c1cnc(-c2ccc(OC)c(OC)c2)nc1NCc1ccc(C)o1	31	30
COc1ccc(CCN(Cc2sccc2C)C(=O)CN(CC(C)C)C(=O)NCc2ccccc2)cc1OC	-4	3
COc1cccc(Cc2nsc(Oc3ccc(C(=O)N4CCN(C/C=C/c5ccccc5)CC4)cc3OC)n2)c1	2	11
Cc1ccccc1CSc1nc2[nH]c(=O)cc(O)c2s1	4	1
COc1ccccc1CC(=O)N1CCOC(COc2ccc(F)cc2)C1 (stereo not drawn)	-4	-6
O=C(CSc1nccs1)Nc1ccc(-c2ccccc2)cc1	11	4
C=CCSc1nc(C)c(C(=O)Nc2ccccc2)c(-c2ccc(OC)cc2)c1C#N	-3	-11
CCC(C)N(CC(=O)Nc1cccc(C)c1C)C(=O)CN1CCCCC1C (stereo not drawn)	-3	-3
CCCNCC(=O)N(Cc1cccn1C)CC(C)C	7	1
Cc1occc1C(=O)N(C)C(Cc1ccccc1)C1CCN(C(=O)c2cccc(F)c2F)CC1 (stereo not drawn)	2	-4
C=Cc1ccc(Cn2c(C)c(C(=O)NCc3cccc(C(F)(F)F)c3)sc2=O)cc1	-10	-3
O=C(CNC(=O)c1ccccc1Br)N=Nc1c(O)[nH]c2ccc(Cl)cc12	-1	-3
C[C@@H](NC(=O)[C@@]1(O)C[C@@H](O)[C@H](O)[C@@H](NC(=O)CC(C)(C)C)C1)C(N)=O	1	-2
O=C(c1ccc(C(F)(F)F)c(F)c1)N1CCC(n2c(=O)[nH]c3ccccc32)CC1	-13	-17
OCC1(Cc2ccccc2)CCN(Cc2ccccn2)CC1	10	6

Source: PubChem
